A1 inh: inhibitors of A1. AID 2241. MEF A1-2A-BIM cells, caspase-Glo luminescence, 3 h; percent of clofoctol signal, DMSO as zero. 0.51% of 21,000 active. caspase activation, % (concentration not given with the values);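 active = most replicate scores above 10, or exactly half above 10 with mean activity above 10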;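 also: effector caspase 3 and 7 activity cleaving a DEVD luciferin substrate; 50 nL library stock added to about 30 µL; numbers are from one replicate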
BJeLR viab HTS: lowers viability of BJeLR cells. AID 2275. 0.64% of 30,000 active. viability loss activity score, % (concentration not given with the values). BJeLR fibroblasts viability, CellTiterGlo ATP luminescence, 48 h; HRASV12, hTERT and SV40 LT/ST transformed; in the data active = viability loss activity score above about 50%; about a fifth of its hits are not listed in these tables;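 also: higher score means fewer live cells and less ATP luminescence; stock transfer was 50 or 100 nL into about 30 µL; 0% = vehicle wells and 100% = a reference killing control; one replicate is shown; the record names a cut of 85%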
* hit, by the source's call; · = no result given. The list is partial; count on the stated rates, not on these rows.

SMILES,BJeLR viab HTS,A1 inh
Cn1c(=O)c2[nH]c(C3CCCC3)nc2n(C)c1=O,-0.4,-0.3
CCOc1ccc(/C=C2\SC(N3CCCC3)=NC2=O)cc1,-0.5,0.4
C[C@@H]1CN([C@@H](C)CO)C(=O)c2cc(NS(=O)(=O)c3ccccc3)ccc2O[C@@H]1CN(C)CC1CC1,4.1,-0.8
COc1ccc(CN(C)C[C@H]2Oc3ccc(NC(=O)Cc4ccccc4)cc3C(=O)N([C@@H](C)CO)C[C@H]2C)cc1,1.0,0.9
C[C@@H]1CN([C@@H](C)CO)C(=O)c2cccc(NC(=O)C3CC3)c2O[C@@H]1CN(C)S(=O)(=O)c1cccs1,-1.5,·
CCCCC1(COC(=O)Nc2cccc(Cl)c2)C(=O)N(c2ccccc2)N(c2ccccc2)C1=O,-3.8,-0.7
COc1ccc(S(=O)(=O)N(C)C[C@@H]2Oc3c(NS(=O)(=O)c4c(C)noc4C)cccc3C(=O)N([C@H](C)CO)C[C@@H]2C)cc1,-4.0,·
C[C@@H]1CN([C@@H](C)CO)C(=O)c2cc(NC(=O)C3CCCCC3)ccc2O[C@@H]1CN(C)Cc1ccc2c(c1)OCO2,-6.4,0.2
O=S(=O)(NCC1COc2ccccc2O1)c1ccc(N2CCOCC2)nc1 (stereo not drawn),5.0,0.4
Cc1nc2nc(SCC(=O)N3CCC4(CC3)OCCO4)nn2c(C)c1Cc1ccccc1Cl,-1.2,·
Nc1c(C(=O)NCC2CCCO2)sc2ccc(S(=O)(=O)N3CCCCC3)cc12 (stereo not drawn),1.3,0.2
O=C(NCCOc1ccccc1-c1ccccc1)c1cccc2ccccc12,3.4,0.1
COc1ccc(S(=O)(=O)N(C)C[C@@H]2Oc3ccc(NC(=O)NC4CCCCC4)cc3C(=O)N([C@H](C)CO)C[C@H]2C)cc1,-0.8,0.6
COC(=O)c1c(C)[nH]c(C)c1C(=O)c1ccccc1Cc1ccccc1,1.1,-0.6
COc1ccc(NC(=O)Nc2cccc3c2O[C@@H](CN(C)Cc2ccncc2)[C@H](C)CN([C@@H](C)CO)C3=O)cc1,-10.5,·
Clc1cc(Cl)cc(OCc2nc(-c3cc(-c4ccccc4)no3)cs2)c1,-11.9,0.8
C[C@H]1CN([C@@H](C)CO)C(=O)c2cc(NC(=O)CCN3CCOCC3)ccc2O[C@@H]1CN(C)C(=O)Nc1ccccc1,0.2,0.0
COc1cc(NC(=O)C2CCCN2C(=O)C2CCC(C)CC2)cc(OC)c1OC (stereo not drawn),-0.1,·
COC(=O)c1csc(S(=O)(=O)N=S(C)(=O)c2cccs2)c1OC (stereo not drawn),-3.7,0.3
C[C@H](CO)N1C[C@H](C)[C@@H](CN(C)Cc2ccc(C(=O)Nc3ccccc3N)cc2)Oc2ccc(NC(=O)Cc3cn(C)c4ccccc34)cc2C1=O,2.8,·
CCOC(=O)CN1N=C(c2ccc(Cl)cc2)CCC1=O,-7.7,0.1
Cc1ccc(OC(=O)c2cc(S(=O)(=O)N3CCCC3)ccc2C)cc1C,0.2,-0.1
c1cc(-c2nnn(C3CCCCC3)c2NC2CCCCC2)[nH]n1,-8.3,0.5
O=C(NCc1ccccc1Cl)C1=CSCCO1,-2.2,-0.1

Exported as labelled records: entries from further up.
SMILES: C[C@H]1CN([C@@H](C)CO)C(=O)c2cc(NC(=O)CCN3CCOCC3)ccc2O[C@@H]1CN(C)C(=O)Nc1ccccc1
- BJeLR viab HTS = 0.2
- A1 inh = 0.0
SMILES: COc1cc(NC(=O)C2CCCN2C(=O)C2CCC(C)CC2)cc(OC)c1OC (stereo not drawn)
- BJeLR viab HTS = -0.1
- A1 inh = ·
SMILES: COC(=O)c1csc(S(=O)(=O)N=S(C)(=O)c2cccs2)c1OC (stereo not drawn)
- BJeLR viab HTS = -3.7
- A1 inh = 0.3

Next section
SMILES,BJeLR viab HTS,A1 inh
COc1ccc(S(=O)(=O)Nc2ccc3c(c2)C(=O)N([C@@H](C)CO)C[C@@H](C)[C@H](CN(C)C(=O)NC2CCCCC2)O3)cc1,-1.2,-0.2
C[C@H]1CN([C@@H](C)CO)C(=O)c2cccc(NC(=O)C3CC3)c2O[C@@H]1CN(C)Cc1ccncc1,0.7,·
Cc1ccc(-c2nc(NC(=O)C(C(C)C)N3C(=O)c4ccccc4C3=O)sc2C)cc1 (stereo not drawn),3.4,1.0
O=C(CN1CCN(Cc2ccc(Cl)cc2)C1=O)NCC1COc2ccccc2O1 (stereo not drawn),-1.1,·
COc1ccc(N2C(=O)/C(=C\C=C\c3ccccc3)SC2=S)cc1,1.8,0.2
COc1cccc(OC)c1OCCNCC1COc2ccccc2O1 (stereo not drawn),-3.2,1.6
C[C@H]1CN([C@@H](C)CO)C(=O)c2cccc(NC(=O)C3CCOCC3)c2O[C@H]1CN(C)S(=O)(=O)c1cccs1,-6.9,·
C[C@H](CO)N1C[C@H](C)[C@H](CN(C)Cc2ccc(Cl)c(Cl)c2)Oc2ccc(NC(=O)Nc3ccc4c(c3)OCO4)cc2C1=O,-4.3,0.2
C[C@H]1CN([C@@H](C)CO)C(=O)c2cccc(NS(=O)(=O)c3cccs3)c2O[C@H]1CN(C)Cc1ccc(Cl)c(Cl)c1,7.2,·
C=C1C(=O)O[C@H]2C1C[C@@H](OC(C)=O)[C@@]1(C)[C@@H](OC(C)=O)C[C@@H](OC(C)=O)C(=C)[C@H]21 (stereo partly drawn),28.2,-0.7
COc1ccc(NC(=O)Nc2cccc3c2O[C@H](CN(C)S(=O)(=O)c2ccc(C)cc2)[C@H](C)CN([C@H](C)CO)C3=O)cc1,1.8,·
COC(=O)c1ccc(CSc2nccn2C)cc1,2.7,-0.9
COc1ccc(C2Oc3cc(OC)ccc3CC2O)cc1 (stereo not drawn),-1.1,0.0
COc1ccc(N2C(=O)CSC2c2cccc(OC)c2OC)cc1 (stereo not drawn),3.3,-0.4
C[C@@H]1CN([C@H](C)CO)C(=O)c2cccc(NC(=O)c3ccc(-c4nccs4)cc3)c2O[C@H]1CN(C)C(=O)NC1CCCCC1,-2.6,·
COc1ccc(NC(=O)Nc2ccc3c(c2)C(=O)N([C@@H](C)CO)C[C@H](C)[C@H](CN(C)Cc2ccncc2)O3)cc1,0.4,0.0
O=C(O)CCN1CN(CCC(=O)O)c2ccccc21,-0.1,·
C[C@H](CO)N1C[C@H](C)[C@@H](CN(C)C(=O)Nc2ccc3c(c2)OCO3)Oc2ccc(NC(=O)CCN3CCOCC3)cc2C1=O,4.8,-0.9
O=C(Nc1ccccc1)N1CCc2sccc2C1c1ccc(C(F)(F)F)cc1 (stereo not drawn),-3.0,0.1
O=C(NC1CCCCCCC1)c1cccs1,-6.3,-1.1
O=C(NCc1ccccc1)c1nc2ncccn2n1,-1.0,-0.2
CCOC(=O)c1c(C)n(CC)c2ccc(OC)cc12,1.4,-1.8
Cc1cc(C)c(SCC(=O)NCc2ccc3c(c2)OCO3)c(C)c1,1.4,1.1
C[C@H](CO)N1C[C@H](C)[C@@H](CN(C)C(=O)Nc2ccc(C(F)(F)F)cc2)Oc2ccc(NS(=O)(=O)c3cccs3)cc2C1=O,-0.2,0.4
COc1cc(C(F)(F)F)cc(C(F)(F)F)c1C(=O)NCc1cccs1,-3.4,1.1
C[C@@H]1CN([C@@H](C)CO)C(=O)c2cccc(NS(C)(=O)=O)c2O[C@@H]1CN(C)S(=O)(=O)c1ccc(Cl)cc1,1.6,·
O=C(NCc1nnc(SCC(=O)N2CCCCC2)o1)c1cccs1,2.8,·
C[C@H](CO)N1C[C@H](C)[C@@H](CN(C)Cc2ccccc2)Oc2c(cccc2N(C)C)C1=O,3.1,·
Cc1noc(C)c1NC(=O)Nc1ccc2c(c1)C(=O)N([C@H](C)CO)C[C@@H](C)[C@@H](CN(C)Cc1ccc(Oc3ccccc3)cc1)O2,2.1,-0.3
CC(C)C(=O)N1CCCCCC1,2.6,-0.1
C[C@H]1CN([C@@H](C)CO)C(=O)c2cccc(NC(=O)Nc3ccc(F)cc3)c2O[C@@H]1CN(C)Cc1ccc(C(=O)O)cc1,10.0,·
COc1ccc(/C=C/C(=O)O[C@@H]2[C@@H](O)[C@@H](O)[C@H](O[C@H]3[C@@H]4C=CO[C@@H](O[C@@H]5O[C@H](CO)[C@@H](O)[C@H](O)[C@H]5O)[C@@H]4[C@@]4(CO)O[C@@H]34)O[C@H]2C)cc1,-1.1,0.0
C[C@@H]1CN([C@@H](C)CO)C(=O)c2cccc(NC(=O)c3cnccn3)c2O[C@H]1CN(C)Cc1ccc(C(F)(F)F)cc1,0.3,·
CC(=O)N1C(=S)NC(=O)/C1=C\c1ccc(C(C)C)cc1,-1.9,0.1
C[C@H]1CN([C@@H](C)CO)C(=O)c2cc(NC(=O)CCCCCC(=O)Nc3ccccc3N)ccc2O[C@H]1CN(C)Cc1ccncc1,3.1,·
COc1ccc(S(=O)(=O)Nc2cccc3c2O[C@@H](CN(C)C(=O)Nc2ccc4c(c2)OCO4)[C@@H](C)CN([C@@H](C)CO)C3=O)cc1,-1.9,·

Quoted at random: 3 entries already listed
SMILES,BJeLR viab HTS,A1 inh
C[C@@H]1CN([C@@H](C)CO)C(=O)c2cccc(NC(=O)c3cnccn3)c2O[C@H]1CN(C)Cc1ccc(C(F)(F)F)cc1,0.3,·
COc1cc(C(F)(F)F)cc(C(F)(F)F)c1C(=O)NCc1cccs1,-3.4,1.1
C[C@H]1CN([C@@H](C)CO)C(=O)c2cccc(NC(=O)Nc3ccc(F)cc3)c2O[C@@H]1CN(C)Cc1ccc(C(=O)O)cc1,10.0,·

Other records
SMILES,BJeLR viab HTS,A1 inh
Cc1noc(C)c1S(=O)(=O)Nc1cccc2c1O[C@H](CN(C)Cc1ccncc1)[C@H](C)CN([C@H](C)CO)C2=O,-2.8,·
O=C(NCc1ccc2c(c1)OCO2)c1ccc(N2CCCC2=O)cc1,-3.3,-0.6
COC(=O)c1c[nH]n2c(=O)c(Cc3ccc(F)cc3Cl)c(C)nc12,9.0,0.5
CCOc1ccc(NC(=O)CCNS(=O)(=O)c2ccc(Br)s2)cc1,-5.8,·
C[C@H](CO)N1C[C@H](C)[C@@H](CN(C)CC2CCCCC2)Oc2c(NC(=O)C3CCOCC3)cccc2C1=O,-2.8,·
C[C@@H]1CN([C@@H](C)CO)C(=O)c2cc(NS(=O)(=O)c3ccc(Cl)cc3)ccc2O[C@@H]1CN(C)Cc1ccc(C(=O)Nc2ccccc2N)cc1,8.2,·
C[C@@H]1CN([C@@H](C)CO)C(=O)c2cc(NS(=O)(=O)c3ccc(F)cc3)ccc2O[C@H]1CN(C)Cc1ccc(Oc2ccccc2)cc1,-2.8,0.7
COC(=O)c1c(C)nn(-c2ccccc2)c1-n1c(C)ccc1C,-2.1,-0.2
CC(C)C1C(=O)CC(c2ccccc2)NC1c1ccccc1 (stereo not drawn),-3.2,-0.3
C[C@@H]1CN([C@H](C)CO)C(=O)c2cc(NS(=O)(=O)c3ccc(F)cc3)ccc2O[C@@H]1CN(C)Cc1ccccc1,1.6,0.5
C[C@@H]1CN([C@@H](C)CO)C(=O)c2cc(NC(=O)CCCN(C)C)ccc2O[C@@H]1CN(C)Cc1ccc(Cl)c(Cl)c1,3.9,-0.1
C[C@H](CO)N1C[C@H](C)[C@@H](CN(C)C(=O)Nc2ccc(C(F)(F)F)cc2)Oc2c(NC(=O)C3CCCCC3)cccc2C1=O,2.4,·
C[C@H]1CN([C@@H](C)CO)C(=O)c2cc(NS(=O)(=O)c3ccc(F)cc3)ccc2O[C@H]1CN(C)C(=O)Nc1cccc2ccccc12,0.8,0.1
O=S(=O)(c1ccccc1)N1CCC(Cc2ccccc2)CC1,-1.5,-1.2
C[C@H](CO)N1C[C@H](C)[C@@H](CN(C)Cc2ccccc2)Oc2c(NS(=O)(=O)c3ccc(Cl)cc3)cccc2C1=O,-4.7,·
C[C@H](CO)N1C[C@H](C)[C@H](CN(C)S(=O)(=O)c2ccc(F)cc2)Oc2c(NS(=O)(=O)c3ccc(Cl)cc3)cccc2C1=O,-0.8,·
CCN(CC)C(=S)Nc1cc(C(=O)OC)ccc1C(=O)OC,0.7,·
CCOc1ccc(N2C(=O)c3ccccc3C2=O)cc1,-3.0,-1.7
C[C@@H]1CN([C@@H](C)CO)C(=O)c2cc(NS(=O)(=O)c3cn(C)cn3)ccc2O[C@@H]1CN(C)S(=O)(=O)c1ccc(F)cc1,-1.4,0.6
Cc1ccc2nsnc2c1NC(=O)CC12CC3CC(CC(C3)C1)C2,7.0,·
CSC1=NC=C(C#N)C2=NC(c3ccc(Cl)cc3)NN12 (stereo not drawn),6.1,-0.5
CSc1n[nH]c(NC(=O)Nc2ccccc2)c1S(=O)(=O)c1ccc(Cl)cc1,4.8,-2.3
COC(=O)c1ccc(NC(=O)CSc2nc(=O)cc(N)n2-c2ccccc2)cc1,1.0,-0.1
Cc1ccc(S(=O)(=O)N(C)C[C@H]2Oc3c(NC(=O)NC4CCCCC4)cccc3C(=O)N([C@H](C)CO)C[C@H]2C)cc1,-0.1,·
FC(F)(F)c1ccc(N2CCN(Cc3cn[nH]c3-c3ccccc3)CC2)nc1,-3.6,-0.2
O=C(NCCc1ccc(S(=O)(=O)N2CCCC2)cc1)c1cccc2ccccc12,3.7,0.5
